Assay outcomes from PubChem BioAssay.
PrP UTR inh: inhibition of PrP 5' UTR reporter expression; cell-based PrP 5' UTR mRNA reporter, plate reader; inhibition, % (concentration not given with the values); 340,000 compounds, 0.35% hits; AID 488862;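 active = every replicate at 50% or more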;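 also: 0 = median of the neutral control wells; tested in H4 reporter cells; numbers are from one replicate; inactives centre near -14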
RN4220 kill: S. aureus RN4220 growth inhibition; OD600, 16 h; AID 1259311; inhibition, % (concentration not given with the values); 330,000 compounds, 0.33% hits;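 active = z-score of -3 or lower and OD600 up to 0.18 on both plates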;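 also: plate controls were untreated cells for no effect and reference antibiotic for full effect; stock transfer was 100 nL into about 80 µL; one replicate is shown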
BJeLR lethal: kills HRASV12-expressing BJeLR cells; BJeLR (HRASV12) viability, CellTiter-Glo ATP luminescence, 48 h; reference of the scale not given here; inhibition, % (test concentration not listed); 300,000 compounds, 0.17% hits;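 active = replicate mean above 50%; inconclusive = above 50% but judged a plate artefact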;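 also: 50 nL library stock added to about 25 µL; numbers are from one replicate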
Mtb hypoxia rep: Mtb hypoxia fluorescent reporter inhibition | M. tuberculosis hypoxia-regulated fluorescent reporter, fluorescence | fluorescence inhibition, % (no concentration beside the values) | 300,000 compounds, 0.1% hits | AID 1159583;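 active = 35 to 45% if threefold the growth effect, above 45% if 1.5-fold the growth effect; inactive = the rest, general growth blockers included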;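 also: wells of about 50 µL received 100 nL stock; 0% = vehicle wells and 100% = reference inhibitor wells; whole bacteria with a GFP reporter of the hypoxia response; strong numbers were not always called active; many hits fall short of the cut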
Sa ugtP lethal: growth inhibition of S. aureus ugtP deletion strain; S. aureus RN4220 ugtP deletion, OD600 growth, 16 h; some inactives read as strong as hits; growth inhibition, % (test concentration not listed); 330,000 compounds, 0.54% hits; AID 1259309;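 active = z-score under -3 and OD600 up to 0.15 on both plates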;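 also: plate controls were untreated wells for no effect and antibiotic for full effect; wells of about 80 µL received 100 nL stock; the first replicate is given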
Autofluor counter: compound fluorescence in toxin protease inhibitor counterscreen. compound autofluorescence counterscreen, microsphere flow cytometry; stronger effect = higher value. fluorescence intensity (concentration not given with the values). 360,000 compounds, 3.1% hits;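 active = at least 3 SD above the mean of all compounds, about 16000 in these data; inconclusive = too few beads counted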;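 also: 100 nL of 1 mM stock went into each well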
Mtb hypoxia rep growth: further read-out of Mtb hypoxia rep, marked with its call; growth inhibition, %; measured here: M. tuberculosis growth (absorbance);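 0% = vehicle and 100% = reference antibiotic; read after six days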
Numbers without * were called inactive; u = inconclusive; x = not tested or not shown.

mol	PrP UTR inh	RN4220 kill	BJeLR lethal	Mtb hypoxia rep	Mtb hypoxia rep growth	Sa ugtP lethal	Autofluor counter
O=C(Nc1ccc(-n2ccnc2P(=O)(O)c2ccccc2)cc1)c1ccccc1Cl	-10	0.8	-9	-4	7	0	6201
CCOC(=O)C1CCCN(C(=O)c2cccc(N3C(=O)c4ccccc4C3=O)c2)C1 (configuration not stated)	-9	0.8	x	-1	7	-2	3479
COC(=O)C1=NNC2C(=O)N(C3CCCCC3)C(=O)C12 (configuration not stated)	-12	-2.5	4	0	-6	2	4687
Cn1cc(C=C(C(=O)O)C(C(=O)O)=C2CCCCC2)c2ccccc21	x	6.1	x	1	2	2	x
O=C1c2cccnc2C(=O)N1Cc1ccccc1	-13	2.4	-6	6	4	5	5884
Cc1nc2scc(C)n2c(=O)c1S(=O)(=O)N1CCN(c2ccccc2F)CC1	-6	1.5	9	-5	3	1	4511
COc1cc2nc(C3CC3)n(NC(=O)c3ccc(Cl)cc3)c(=O)c2cc1OC	0	-1.6	x	-12	4	1	10786
O=C(NCc1ccc(Cl)cc1)c1csc(-c2cccnc2)n1	-1	1.6	-15	-2	13	-4	x
C/C(NCCN1CCOCC1)=C(\C#N)C(N)=O	-20	x	-7	x	x	x	3121
CC(C)CC(=O)NC(=S)Nc1ccc(N2CCOCC2)cc1	-32	1.0	-12	24	34	50	2113
CSc1ccccc1NC(=O)CN(C1CCCCC1)S(C)(=O)=O	-27	1.9	-3	3	6	-5	8271
CC(CC(=O)O)CC(=O)Nc1ccc(Br)cc1 (configuration not stated)	-17	2.6	1	12	-4	4	3246
CC(C)=CCN1CCN(CCC2=C(C)CCCC2(C)C)CC1CCO (configuration not stated)	-14	0.4	-6	0	-2	9	2105
CCc1cc(=O)[nH]c(SCC(=O)NCc2ccc3c(c2)OCO3)n1	-19	1.4	-4	-1	6	3	5945
COc1ccc(N2C(C(C)=O)=NN(c3ccccc3)C2c2cccs2)cc1 (configuration not stated)	-4	-0.2	x	x	x	52	2649
O=C1/C(=C/c2ccccc2)NC(=S)N1C(c1ccccc1)c1ccccc1	-15	9.9	14	3	7	-19	2999
O=C1CN=C(c2cc([N+](=O)[O-])ccc2Cl)c2cc([N+](=O)[O-])ccc2N1	-5	2.0	-2	2	12	-2	3209
COc1ccc(O)c(-c2[nH]ncc2C(=O)c2ccccc2C)c1	4	32	-5	4	1	15	2568
CC1CCN(S(=O)(=O)c2ccc(C(=O)NC3CCS(=O)(=O)C3)cc2)CC1 (configuration not stated)	-4	0.9	12	5	-3	3	u
CN1CCN(C(=O)NC2CCCN2S(=O)(=O)c2ccc(Cl)cc2)CC1 (configuration not stated)	0	-1.4	4	x	x	1	2079
O=c1c2ccccc2nc2sc3ccccc3n12	-70	-1.5	x	x	x	14	3465
C=CCSc1nnc(-c2c[nH]c3ccccc23)n1CC	-14	1.4	x	3	14	-11	5392
O=C(Nc1c(F)cc(F)cc1Br)c1cccnc1	7	0.0	-3	12	5	-2	23919*
CC(Oc1ccccc1)C(=O)NNC(=O)c1ccccn1 (configuration not stated)	-12	-1.6	9	6	12	6	2500
O=C(CNC(=O)c1cccs1)NCC(=O)OCc1c(Cl)cccc1Cl	8	0.3	8	2	3	-4	10929
CC(CN(C)Cc1ccccc1)OC(=O)c1cccs1 (configuration not stated)	-6	4.6	1	13	9	-5	8019
COc1cc(C(=O)NCc2ccc(S(N)(=O)=O)cc2)ccc1OCC(=O)Nc1cccc(C(F)(F)F)c1	-28	6.1	-8	9	7	-1	6391
Cc1ccccc1C(=O)/C=C1\NC(=O)CS1	-6	1.8	-12	12	11	-2	3982
CC(=O)N(c1ccccc1)C1CC(C)N(C(=O)c2ccccc2)c2ccccc21 (configuration not stated)	-23	4.2	2	8	6	13	4290
N=c1c(S(=O)(=O)c2ccc(Cl)cc2)cc2c(=O)n3ccccc3nc2n1Cc1ccco1	0	x	3	x	x	x	5769
CCOC(=O)Cc1csc(NC(=O)c2ccc3ccccc3n2)n1	-17	8.9	-3	-1	2	-5	3795
O=C(OCC(=O)N1CCCC1)c1cc(Br)ccc1Cl	-18	1.5	9	8	17	2	3259
O=C(Nc1ccc(F)cc1)c1ccccc1CC[N+](=O)[O-]	0	-0.3	1	x	x	-3	2506
CCOC(=O)c1[nH]c(C)c(C(=O)N2CCc3c([nH]c4ccccc34)C2c2ccccn2)c1C (configuration not stated)	-22	-4.9	-9	-5	5	-5	2584
COC(=O)c1c(C)nn(-c2ccc(OC(F)(F)F)cc2)c1-c1snnc1C	x	3.4	-8	20	-2	6	x
CCc1ccc(OCC(=O)NNC(=O)c2ccc(-n3cncn3)c([N+](=O)[O-])c2)cc1	-41	2.9	x	12	-2	15	7255
COc1ccccc1CN1CCN(Cc2ccco2)CC1	-21	-0.6	-14	8	4	16	3628
O=C(CN1C(=O)NC(c2ccccc2)(c2ccccc2)C1=O)NCc1ccccc1	-1	0.7	x	-1	6	-1	8745
O=C(CN1C(=O)NC2(CCCC2)C1=O)Nc1nc2ccccc2[nH]1	13	x	-10	x	x	x	u
CC1CN(S(=O)(=O)c2cccc(C(=O)OCCOc3ccccc3)c2)CC(C)O1 (configuration not stated)	-3	-0.1	x	10	-3	-18	x
COc1ccc(-n2c(SC(C)C(=O)Nc3ncc(Cl)cc3Cl)nc3ccccc32)cc1 (configuration not stated)	31	-9.4	46	5	2	-21	8324
CCOC(=O)CN(C(=O)CNC(=O)c1cccs1)C(C(=O)NC1CCCCC1)c1cccs1 (configuration not stated)	-7	2.3	-1	7	17	0	4053
CNC(=O)Oc1ccc(-c2cn3cc(Cl)ccc3n2)cc1	-58	x	13	x	x	x	2074
COc1ccc(/C=C/C(=O)NC(=S)Nc2ccc(S(N)(=O)=O)cc2)cc1OC	0	4.7	-10	9	2	11	3706
O=C(Cn1nnc(-c2ccccc2-n2cnnn2)n1)c1ccccc1	-34	1.6	0	10	1	4	8932
Cc1c(OCC(=O)NCc2ccncc2)ccc2c3c(c(=O)oc12)CCCC3	4	-1.3	7	4	-7	4	2715
COc1ccc(NC(=O)CC(C)n2ccnc2)cc1 (configuration not stated)	-15	1.9	-4	-1	-6	4	2997
NC(=O)COC(=O)c1ccccc1SCC(=O)NC1CCCCCCC1	-20	-2.9	3	-6	0	-6	3786

Molecules above that have a CF3 group, in the order listed:
mol	PrP UTR inh	RN4220 kill	BJeLR lethal	Mtb hypoxia rep	Mtb hypoxia rep growth	Sa ugtP lethal	Autofluor counter
COc1cc(C(=O)NCc2ccc(S(N)(=O)=O)cc2)ccc1OCC(=O)Nc1cccc(C(F)(F)F)c1	-28	6.1	-8	9	7	-1	6391
COC(=O)c1c(C)nn(-c2ccc(OC(F)(F)F)cc2)c1-c1snnc1C	x	3.4	-8	20	-2	6	x

Further compounds follow:
mol	PrP UTR inh	RN4220 kill	BJeLR lethal	Mtb hypoxia rep	Mtb hypoxia rep growth	Sa ugtP lethal	Autofluor counter
O=C(O)c1ccc(NS(=O)(=O)c2cccc(C(=O)Nc3cccc(C(=O)O)c3)c2)cc1	-15	4.2	-3	-8	8	3	3557
CCc1ccc(C(CNC(=O)c2ccc3c(=O)n(-c4ccccc4F)c(=S)[nH]c3c2)N(C)C)cc1 (configuration not stated)	-19	-2.5	18	11	5	0	4009
O=C1NC2(CCCCCC2)C(=O)N1Cc1cccc([N+](=O)[O-])c1	-19	5.6	0	2	8	14	3675
O=C(Nc1ccc(F)cc1)NC1CCN(Cc2nnnn2Cc2ccco2)CC1	-8	-0.6	-9	7	4	-1	22240*
Cc1cccc(C)c1NC(=O)CN(C)C(=O)COc1cccc2c1OC(C)(C)C2	4	0.6	-8	1	-9	1	u
O=C(N/N=C/C(Br)=C\c1ccccc1)c1ccc2nc[nH]c2c1	-18	x	-2	x	x	x	2423
CCCCNC(=O)c1onc(CSc2ccc(Cl)cc2)c1C(=O)O	-9	34	5	15	7	11	3633
O=C(CSCc1cccc(F)c1)N1CCN(c2ccccc2)CC1	-48	2.9	-18	-2	6	4	10738
CCCCOc1ccc(-c2nnc(-c3cc[n+](C)cc3)o2)cc1	-7	0.5	1	15	11	0	2317
CSc1ccc(C=NNC(=O)c2ccc(-n3cnnn3)cc2)cc1	x	2.2	x	20	8	3	x
CSc1ccc(-c2nc(CN3CCCCC3c3cccnc3)c(C)o2)cc1 (configuration not stated)	-24	-0.9	13	4	-6	6	12272
Cc1nn(C2CCCCC2)c(N)c1-c1ccccc1	-14	5.7	13	14	12	-2	3896

The final four compounds of the part above are carried over, then new ones follow.
mol	PrP UTR inh	RN4220 kill	BJeLR lethal	Mtb hypoxia rep	Mtb hypoxia rep growth	Sa ugtP lethal	Autofluor counter
CCCCOc1ccc(-c2nnc(-c3cc[n+](C)cc3)o2)cc1	-7	0.5	1	15	11	0	2317
CSc1ccc(C=NNC(=O)c2ccc(-n3cnnn3)cc2)cc1	x	2.2	x	20	8	3	x
CSc1ccc(-c2nc(CN3CCCCC3c3cccnc3)c(C)o2)cc1 (configuration not stated)	-24	-0.9	13	4	-6	6	12272
Cc1nn(C2CCCCC2)c(N)c1-c1ccccc1	-14	5.7	13	14	12	-2	3896
COc1ccccc1NS(=O)(=O)c1cccs1	3	4.2	-5	6	5	-3	12875
CCCC(=O)N(Cc1cc(=O)[nH]c2ccccc12)c1ccc(C)cc1C	-6	4.0	-3	3	-2	-12	3906
CN(C)CCNC(=O)c1csc(Nc2cccc3ccccc23)n1	-26	-0.1	6	13	6	-3	3793
CCCCNC(=O)NC12CC3CC(CC(C3)C1)C2	4	5.3	1	x	x	4	2272
O=C1C2CC=CCC2C(=O)N1Cc1nnc(-c2ccc(Cl)cc2)o1 (configuration not stated)	-21	x	2	x	x	x	3515
COc1ccc(C(=O)N2CCN(c3ccc(C(C)=O)cc3)CC2)cc1S(=O)(=O)N1CCCC1	-23	8.3	x	15	7	7	x
Cc1oc(S(=O)(=O)N(C)C)cc1C(=O)Nc1ccc(Cl)cc1	-34	3.1	4	14	0	-1	6108
CC(C)c1ccc(/C=C2\SC(N3CCOCC3)=NC2=O)cc1	-30	3.6	-1	4	4	14	3959
COCCN1C(=O)N[C@@H](c2cccc(C(F)(F)F)c2)[C@@H](C(=O)OC)[C@H]1C	-1	x	4	x	x	x	3051
O=C(Nc1nc(-c2ccccn2)cs1)c1ccc([N+](=O)[O-])o1	-7	7.4	13	x	x	21	4912
CC(C)CC(CN=[N+]=[N-])N1CCN(C)CCC1=O (configuration not stated)	x	2.8	x	-3	-1	-1	x
CCOC(=O)CC1c2ccc(C(F)(F)F)cc2S(=O)(=O)N1Cc1ccccc1 (configuration not stated)	x	5.1	x	19	4	2	x
CCOC(=O)C(=O)/C(C#N)=C/Nc1ccc(F)cc1	-11	0.2	-4	x	x	-3	2669
CC(C)c1ccc(-c2cc(C(=O)N3CCOCC3)c3cc(Br)ccc3n2)cc1	-1	4.5	-11	9	3	27	7564
O=C(CC1C(=O)NCCN1Cc1ccc(F)cc1)NCCN1CCCc2ccccc21 (configuration not stated)	-22	1.1	-4	-11	11	-6	2846
COc1ccc(-c2csc(NC(=O)CSCC(=O)Nc3cc(C)on3)n2)c(OC)c1	-20	-0.7	-4	-2	4	-1	5646
CC(C)/C=C/CN1CCCC(N2CCN(c3cccc(Cl)c3)CC2)C1 (configuration not stated)	-7	-1.8	1	2	-1	10	4229
CN(C)CC(C)(C)CNC(C(=O)Nc1ccc(Cl)cc1C(F)(F)F)c1ccccc1 (configuration not stated)	-21	7.0	1	5	11	1	4015
Cc1ccc(C)c(-c2cc(C(=O)NCc3cccs3)c3ccccc3n2)c1	-17	-3.8	-1	4	-5	54	14736
CC(C)CCC1CC(CSC(=N)N)OC1=O (configuration not stated)	-11	6.4	-16	8	2	8	3023
CCCc1nnc(SCC(=O)N2CCCC2)n1Cc1ccco1	-6	7.2	10	-2	7	3	4602
CNC(=S)N(CCc1c(C)[nH]c2ccccc12)Cc1cccnc1	-14	-0.7	-6	-3	-1	1	3451
